Source: PubChem BioAssay (National Center for Advancing Translational Sciences (NCATS))
VDR inhibitor: Inhibitors of the vitamin D receptor (VDR): qHTS; Vitamin D3 receptor (Homo sapiens), P11473; VDR-SRC2-3 peptide fluorescence polarization, 2 h; Potency, µM, inactives show max response, negative = inhibition, actives largely listed as inhibitors; 400,000 tested, 0.93% active; active = well fitted inhibition curve with a large enough effect; inconclusive = small, poorly fitted or top-dose-only effect, or another doubt; inactive = no such curve, though single readings can be large or run the other way; also: series mostly up to about 120 µM
Target sequence (P11473 whole entry, looked up): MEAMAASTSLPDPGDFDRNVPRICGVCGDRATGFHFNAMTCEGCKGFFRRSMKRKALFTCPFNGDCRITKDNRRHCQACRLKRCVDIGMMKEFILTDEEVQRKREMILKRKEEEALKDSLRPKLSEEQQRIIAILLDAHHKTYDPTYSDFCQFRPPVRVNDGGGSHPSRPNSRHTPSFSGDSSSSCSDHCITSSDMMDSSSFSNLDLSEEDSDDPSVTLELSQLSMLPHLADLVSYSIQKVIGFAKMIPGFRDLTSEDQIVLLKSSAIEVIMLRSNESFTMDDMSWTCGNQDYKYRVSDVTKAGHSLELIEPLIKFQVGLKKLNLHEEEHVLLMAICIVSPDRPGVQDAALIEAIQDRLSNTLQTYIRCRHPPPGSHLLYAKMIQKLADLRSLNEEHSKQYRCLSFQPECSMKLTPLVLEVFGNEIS
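FP read-out; VDR + SRC2-3 coactivator peptide; 23 nl compound by pintool; 2 h RT incubation; reagents held at 4 deg C, protected from light.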
* hit, by the source's call; ? = inconclusive; & = joins results of further samples. % is scaled to controls: 0 for no effect and ±100 for the full control effect; potency is read from the fitted curve at half-maximal effect.

VDR inhibitor,smiles
7%,CC(C)(C)c1ccc(C(=O)NCC(=O)N/N=C/c2ccccc2OCC(=O)O)cc1
-6%,CCOc1ccc(/C=N/N(C)c2ccccc2)cc1OC
?,COc1ccc(/C=C(/NC(=O)c2ccccc2)C(=O)NC2CCS(=O)(=O)C2)cc1 (centres undefined)
0%,COc1ccc(CCNC(=O)C/C(C)=N/NC(=O)C23CC4CC(CC(C4)C2)C3)cc1OC
-3%,Cc1nc2ccc(NC(=O)c3ccc(S(=O)(=O)N(C)c4ccccc4)cc3)cc2s1
-10%,COc1ccc(-n2c(C)c(C(C)=O)c3cc(OC(=O)COc4ccccc4)ccc32)cc1
-3%,COc1ccc(/C=C/CN2CCN(Cc3ccccc3)C(CCO)C2)cc1 (centres undefined)
2%,CN1CCN(C(=O)Cn2ncc3c4ccccc4n(Cc4ccc(F)cc4)c3c2=O)CC1
8%,COc1ccc(CCNC(=O)c2cnn(-c3ccc(C)c(C)c3)c2NC(=O)c2ccco2)cc1OC
-10%,O=[N+]([O-])c1cc(C(F)(F)F)ccc1Oc1cccnc1[N+](=O)[O-]
-11%,Cc1ccc(S(=O)(=O)N2CCN(CC(=O)Nc3ccnn3C3CCCC3)CC2)cc1
4%,CCC[C@@H](CNC)NC[C@H](Cc1ccccc1)NCCCCc1ccccc1
?,CCOC(=O)CCc1c(C)nc(SCC(=O)O)c(C#N)c1C
-22%,N=c1ccn2c(n1)OC1C(O)[C@@H](CO)O[C@H]12 (some centres undefined)
-2%,COc1cccc(C=Nc2ccc(C)c(F)c2)c1O
-6%,COCCn1c(=NC(=O)c2cc3ccccc3oc2=O)sc2cc(S(N)(=O)=O)ccc21
3%,Cc1ccccc1Nc1nc(N)nc(C)c1Br
?,COC(=O)c1scc(C#N)c1N/N=C(\C#N)S(=O)(=O)c1ccc(Cl)cc1
-19%,CN1OC[C@@H]2CN[C@H](c3cccc(-c4cc(Cl)cc(Cl)c4)c3)C[C@@H]21
-5%,O=C(CCn1c(=O)sc2ccccc21)NCc1ccccc1
6%,O=C(COC(=O)CNC(=O)c1ccccc1Cl)Nc1ccccc1Cl
-14%,COc1ccc(NC(=O)/C(=C\c2ccc3c(c2)OCO3)NC(C)=O)cc1
16%,COc1cc2c(cc1OC)C(c1cccs1)N(C(=O)c1cccc(S(=O)(=O)N(C)C)c1)CC2 (centres undefined)
-21%,CCCCNC(=O)c1ccccc1NC(=O)C1=C(C)OCCS1
10%,Cc1ccc(Cl)cc1N1CCN(C(=O)CN(c2ccccc2)S(=O)(=O)N(C)C)CC1

Structures shown so far with a cyano group (2):
VDR inhibitor,smiles
?,CCOC(=O)CCc1c(C)nc(SCC(=O)O)c(C#N)c1C
?,COC(=O)c1scc(C#N)c1N/N=C(\C#N)S(=O)(=O)c1ccc(Cl)cc1

Returning to the listing, repeating the 6 entries before the break.
VDR inhibitor,smiles
-5%,O=C(CCn1c(=O)sc2ccccc21)NCc1ccccc1
6%,O=C(COC(=O)CNC(=O)c1ccccc1Cl)Nc1ccccc1Cl
-14%,COc1ccc(NC(=O)/C(=C\c2ccc3c(c2)OCO3)NC(C)=O)cc1
16%,COc1cc2c(cc1OC)C(c1cccs1)N(C(=O)c1cccc(S(=O)(=O)N(C)C)c1)CC2 (centres undefined)
-21%,CCCCNC(=O)c1ccccc1NC(=O)C1=C(C)OCCS1
10%,Cc1ccc(Cl)cc1N1CCN(C(=O)CN(c2ccccc2)S(=O)(=O)N(C)C)CC1
13%,Cc1ccc(-n2ncc(C(=O)N3CCN(C4CCCCC4)CC3)c2C2CCN(C(=O)OC(C)(C)C)CC2)cc1C
2%,CCOC(=O)/C=C1\SCC(=O)N1CC(=O)NCc1ccc(OC)c(OC)c1
-7%,Cc1cccc([C@@H]2[C@@H]3C(=O)N(Cc4ccccc4)C(=O)[C@@H]3[C@]3(Cc4ccc(Cl)cc4)C(=O)N(c4cccc(Cl)c4)C(=O)N23)c1
4%,O=C(Cn1c(=O)c2cccn2c2ccc(F)cc21)NCCCN1CCN(c2ccccc2F)CC1
13%,c1ccc(SCc2nc3ccccc3[nH]2)cc1
11%,O=C(NC1CCCc2ccccc21)c1cccnc1 (centres undefined)
-1%,O=C(Cn1cnc2ccc(Br)cc2c1=O)c1cccs1
6%,O=C(Cn1cnc2ccccc2c1=O)c1cccs1
-9%,O=C(Cn1c(=O)c2ccccc2n(CC(=O)Nc2ccc(F)cc2)c1=O)NCCc1ccccc1
-13%,O=C(NCCCN1CCCC1=O)c1ccc(Cl)c(S(=O)(=O)N2CCCCC2)c1
-20%,COc1ccc(NC(=O)CCC(=O)c2ccc(C(C)C)cc2)cc1
-4%,CN(C)c1ccc(/C=N/NC(=O)CCc2c[nH]c3ccccc23)cc1
-20%,Cc1ccc(-c2nc(S(=O)(=O)c3ccc(F)cc3)c(SCC(=O)NCC3CCCO3)o2)cc1 (centres undefined)
20%,COc1ccccc1N1C(=NC(=O)CCc2ccccc2)SC2CS(=O)(=O)CC21 (centres undefined)
-14%,Cc1cccn2c(=O)nc(SCC(=O)NCc3ccco3)nc12
?,CCCC(=O)Nc1ccc2c(c1)nc(CCN1CCN(c3ccccn3)CC1)n2C
15%,Cn1nc(Cc2n[nH]c(=S)n2C)c2ccccc2c1=O
-4%,COC(=O)C1=C(O)/C(=C\c2ccc(CNC(=O)C(=O)Nc3ccc(C)c(C)c3)o2)N=C1C
7%,O=C(CCNS(=O)(=O)c1ccc2[nH]c(=O)oc2c1)Nc1cccc(Br)c1
3%,CC(C)CN(C(=O)COC(=O)CCC(=O)c1ccc(Cl)cc1)c1c(N)n(Cc2ccccc2)c(=O)[nH]c1=O
-18%,CCCCCn1c(CN2CCN(c3cccc(Cl)c3)CC2)nc2c1c(=O)[nH]c(=O)n2C
3%,CC(Oc1cccnc1[N+](=O)[O-])C(=O)Nc1cccc(Cl)c1 (centres undefined)
17%,O=C(O)CCCCCNC(=O)c1ccccc1Br
-17%,COc1ccc(-c2noc(N3CCC(C(=O)Nc4ccccc4OC)CC3)n2)cc1
-21%,CN(C)S(=O)(=O)c1ccc(C(=O)NCc2nnc(SCC(=O)Nc3ccc(F)cc3)n2-c2ccc(F)cc2)cc1
17%,CSc1ccc(CCNC(=O)c2ccc(-n3c(C)cc4c3CCCC4)cc2)cc1
-2%,O=C(NCCN1CCCC1=O)C1CCC(=O)N(CCc2cccc(F)c2)C1 (centres undefined)
-13%,CCOc1cc(S(=O)(=O)n2cnc(C)c2)ccc1Cl
8%,CC(C)Oc1ccc(C(=O)N(Cc2ccc(N(C)C)cc2)C2CCS(=O)(=O)C2)cc1 (centres undefined)
-8%,O=C(O)CCC(=O)Nc1ccc(-c2csc(Nc3cccc4ccccc34)n2)cc1
-9%,CC1CCCCC12NC(=O)N(CC(=O)OCc1ccc(Br)cc1)C2=O (centres undefined)
3%,CC(C)(C)OC(=O)N1CCC(c2c(C(=O)N3CCN(c4ncccn4)CC3)cnn2-c2ccc(F)cc2F)CC1
-1%,CCn1ccc2cc(S(=O)(=O)N3CCC(C(=O)NCc4ccc(OC(C)C)cc4)CC3)ccc21
-4%,COc1ccc(CCNC(=O)c2ccc(N3CCCC3=O)cc2)cc1OC
0%,O=C(Nc1ccnn1C1CCN(C/C=C/c2ccccc2)CC1)C1CCCC1
-2%,C=CCNC(=O)c1c(N)n(-c2ccc3c(c2)OCO3)c2nc3ccccc3nc12
?,O=C(NNC(=S)NC(=O)c1ccc(Br)cc1)c1ccc([N+](=O)[O-])cc1
-11%,COP(=O)(OC)c1nc(-c2cccc3ccccc23)oc1N1CCOCC1
-5%,CC(NC(=O)CC1CCCCC1)c1ccccc1 (centres undefined)
-9%,Cc1ccccc1C(=O)Nc1ccc2oc(-c3ccc(Cl)c(Cl)c3)nc2c1
-6%,COC(=O)c1cn(-c2ccc(F)cc2)c(=O)c2ccccc12
9%,O=c1c2[nH]c3ccccc3c2ncn1Cc1ccccn1
0%,Cc1scc(C(=O)NNC(=S)NCC2CCCO2)c1C (centres undefined)
?,COCCCNC(=S)NNC(=S)Nc1ccc(OC)cc1
8%,CCCCOC(=O)c1ccc(NC(=O)Nc2ccc(OC)c(OC)c2)cc1
-11%,Cc1ccc(-c2ccc(SCC(=O)c3ccccc3)nn2)cc1
-10%,COc1cc(C(=O)Nc2ccc(C(F)(F)F)cc2)ccc1OCC(=O)N1CCOCC1
-20%,CC1(C)C2([N+](=O)[O-])CN3CC1([N+](=O)[O-])CN(C2)C3c1ccccc1 (centres undefined)
5%,COc1cccc(C2CC(=O)Nc3c2c(=O)[nH]c2nc4ccccc4n32)c1 (centres undefined)
-10%,CC1CN(CCC(=O)Nc2ccc3c(c2)CCC3)CC(C)O1 (centres undefined)

3 entries out of the list, ordered by length of the SMILES, low to high:
VDR inhibitor,smiles
-9%,CC1CCCCC12NC(=O)N(CC(=O)OCc1ccc(Br)cc1)C2=O (centres undefined)
-2%,C=CCNC(=O)c1c(N)n(-c2ccc3c(c2)OCO3)c2nc3ccccc3nc12
-20%,CC1(C)C2([N+](=O)[O-])CN3CC1([N+](=O)[O-])CN(C2)C3c1ccccc1 (centres undefined)

Continuation:
VDR inhibitor,smiles
1%,CCCCn1c(=O)c(CCC(=O)OCC(=O)NC(=O)NCCOC)nc2ccccc21
-17%,O=C(N/C(=C\c1ccc(Br)cc1)C(=O)N1CCOCC1)c1ccc(Br)o1
10%,COc1ccc2cc(Br)ccc2c1CC(=O)NCCCN1CCOCC1
1%,Cc1ccccc1NC(=O)CN1C(=O)NC(C)(c2ccc3c(c2)OCO3)C1=O (centres undefined)
-12%,COc1ccc(-n2ccnc2SCC(=O)NCc2ccc(F)cc2)c(OC)c1
-15%,COc1ccc(CCNC(=O)c2csc3c2CCCC3)cc1
-9%,CCC(C(=O)NC1CCCC1)N(C(=O)c1snc(C(N)=O)c1N)c1ccc2c(c1)OCCO2 (centres undefined)
-15%&18%,COc1ccc(OC)c(NC(=O)C2CCN(S(=O)(=O)c3ccc4c(c3)CC(C)N4C(C)=O)CC2)c1 (centres undefined)
-6%,Cc1cccc(C)c1NC(=O)CNC(=O)COC(=O)c1ccc(Cl)s1
3%,COc1ccccc1CNC(=O)Cn1nc(C)c2nn(-c3ccc(Cl)cc3)c(C)c2c1=O
0%,Cc1ccc(C)c(NS(=O)(=O)c2cc(C(=O)NCc3ccccn3)ccc2Cl)c1
-5%,Cc1cc(C(=O)NCCc2ccccc2)ccc1[N+](=O)[O-]
-11%,O=C(c1ccccc1)C1CC=CCC1C(=O)c1ccccc1 (centres undefined)
-18%,CCCCNc1c(-c2ccc(SC(C)CC)c(OC)c2)nc2ccc(C)cn12 (centres undefined)
12%,O=C(CCl)NC(=O)NC12CC3CC(CC(C3)C1)C2
-17%,COC(=O)C(CC(=O)c1ccccc1)CC(=O)c1ccccc1
-10%,CC1(C)CC(=O)C(C=NCCCn2ccnc2)=C(O)C1
-12%,Cc1c(C)c(C)c(CN2CCSCC2)c(C)c1C
?,COc1ccccc1NC(=O)CCc1nc2ccccc2s1
-2%,Cc1ccc(C)c2[nH]c(=O)c(CN(CC3CCCO3)C(=O)NC3CCCCC3)cc12 (centres undefined)
6%,Cc1ccc(N=C2c3ccccc3C(=O)C2[N+](=O)[O-])cc1C (centres undefined)
-21%,O=C(COC(=O)c1cncc(Br)c1)NC1CC1
-19%,CC1CCc2c(sc(/N=C/N(C)C)c2C#N)C1 (centres undefined)
5%,O=C(Nc1ccc(C(=O)NCc2ccccc2)cc1)C1=CSCCO1
-10%,O=C(N/N=C/c1sc(N2CCOCC2)nc1-c1ccccc1)c1cccc(S(=O)(=O)N2CCOCC2)c1

Not a retest: 2 of the compounds above.
VDR inhibitor,smiles
1%,CCCCn1c(=O)c(CCC(=O)OCC(=O)NC(=O)NCCOC)nc2ccccc21
-17%,O=C(N/C(=C\c1ccc(Br)cc1)C(=O)N1CCOCC1)c1ccc(Br)o1

(cont.)
VDR inhibitor,smiles
2%,NC(=S)n1[nH]c(-c2ccc([N+](=O)[O-])cc2)c(N=Nc2ccc(O)cc2)c1=O
4%,CCN1CC=C2C(C#N)=C(N)C(C#N)(C#N)[C@H](c3cccc(OC)c3OC)[C@H]2C1
-8%,COc1ccc(CC(=O)N/N=C(\C)c2ccc(Br)s2)cc1
10%,CC(=O)Nc1ccc(NC(=O)C(C)OC(=O)c2ccccc2NS(=O)(=O)c2cccs2)cc1 (centres undefined)
-11%,COCC(=O)N(C)C1(c2nnnn2CCOC(=O)Nc2ccc(Cl)cc2)CCCCC1
-1%,COc1ccc(C(=O)NCCSCc2ccccc2Cl)cc1OC
1%,O=C(CC1C(=O)NCCN1Cc1ccccc1)NCCCOc1cccnc1 (centres undefined)
10%,CN(C)c1oc(COc2ccc(F)cc2)nc1C#N
8%,COc1ccc(CC(=O)OCC(=O)Nc2ccc3c(c2)OCO3)cc1
10%,CC(=O)Nc1ccccc1-c1nc2ccccc2n(C(C)C(=O)Nc2ccccc2C(F)(F)F)c1=O (centres undefined)
4%,CCOCCCNC(=O)c1ccc2c(c1)N(Cc1ccccc1)C(=O)CS2=O (centres undefined)
-10%,COc1ccccc1CCNC(=O)CCSc1nc(-c2ccco2)cc(C(F)(F)F)n1
12%,Oc1ccc(/C=N/n2c(COc3ccccc3)n[nH]c2=S)c(O)c1
?,CCOC(=O)N1CCN(c2cc(=O)n(-c3ccc(Br)cc3)c(=O)[nH]2)CC1
6%,Cc1ccc(S(=O)(=O)NCc2nc3cccnc3n2Cc2ccccc2Cl)c(C)c1
-17%,O=C(NCc1ccccc1Cl)C1CCN(c2cnccn2)CC1
-2%,Cc1ccc(OCC(=O)Nc2ccccc2N2CCOCC2)c(C)c1

A portion of the library, so the mix of outcomes need not match the whole.
